High-throughput results from PubChem.
HSD17B inh – HSD17B dehydrogenase inhibition. Q99714. recombinant HSD17B10, NADH fluorescence kinetic; many of its hits are not listed in these tables. Potency, µM (series often up to 57.1 µM), inactives show at the top dose activity change, negative = inhibition, usual class: inhibitors. 75,000 tested, 7.6% active. AID 893; active = well fitted inhibition curve with a large enough effect; inconclusive = small, poorly fitted or top-dose-only effect; inactive = no such curve, though single readings can be large or run the other way;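 also: the protocol describes HADH2 (HSD17B10) and not the HSD17B4 of the title; nearly all actives have a fitted effect of over 70% in size; most hits overshoot -100% by far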
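Activity followed as NADH fluorescence increase (ex 360, em 450 nm) every 30 seconds for 4 min, using final 90 uM beta-hydroxybutyryl CoA and 1 mM NAD+. Recombinant His-tagged enzyme, 20 nM, pH 9.0 Tris buffer, 15 min compound preincubation.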
* = called active by the depositor; ? = inconclusive; [ ] = another dose, or the depositor's remark. % is scaled to controls: 0 for no effect and ±100 for the full control effect; potency is read from the fitted curve at half-maximal effect. An excerpt (hit frequency here may not be typical).

SMILES	HSD17B inh
COC(=O)C(C)Sc1nc2c([nH]c3ccccc32)c(=O)n1C (stereo not drawn)	-4%
CN(C)c1ccc(-c2ccc3ncnc(N4CCNCC4)c3c2)cc1	2%
O=C(Nc1ccccc1C(=O)Nc1ccccc1C(=O)NCc1ccco1)c1ccco1	25µM*
Cc1cc(NC(=O)c2cc(-c3cccnc3)nc3c(C)c(C)ccc23)no1	32µM*
Clc1cccc(-c2nnc3sc(-c4ccc5c(c4)OCO5)nn23)c1	-8%
COc1cccc(NC(=O)N2CCCC2C(=O)Nc2ccc3c(c2)OCO3)c1 (stereo not drawn)	4%
Cc1cccc(N2CCN(C(=O)Cn3ccc4ccccc4c3=O)CC2)c1C	3%
COc1cc2c(C(=O)NCc3ccc(C)o3)cn(CC(C)C)c(=O)c2cc1OC	-6%
COc1ccc(C(=O)N2CCC3(CC2)CCN(c2ccccn2)CC3)cc1	25µM*
CCCc1cc(=O)[nH]c(SCC(=O)NC(=O)OCC)n1	4%
CC1=CC(c2ccccc2)n2nc(N3C(=O)c4ccccc4C3=O)nc2N1 (stereo not drawn)	-11%
c1ccc(-n2ncc3c2ncn2c(CSc4nc5ccccc5s4)nnc32)cc1	6%
O=C1NC2(CCCC2)N=C1c1ccc(Cl)cc1	-1%
COC(=O)c1ccc(NC(=O)Cn2nc(SC)n(N)c2=S)cc1	7%
Cc1ccc2c(c1)nnn2C1CCN(C(=O)c2cccs2)CC1	8%
CCOC(=O)COc1ccc(C(=O)NC2CCCCC2)cc1	-3%
CCS(=O)(=O)N1CCC(C(=O)NC2CCCCC2)CC1	9%
C=CCc1cccc(CNc2nc3ccccc3n2CC)c1O	-1%
C=CCn1cnc2c(c1=O)c1nc3ccccc3nc1n2/N=C/c1cc(OC)c(OC)c(OC)c1	4%
COc1ncc2nc(-c3cc(F)cc(F)c3)c(=O)n(-c3ccccc3)c2n1	?
Cc1cc(Cl)c(S(=O)(=O)NCCC(=O)O)cc1OCC(N)=O	0%
Cc1ccc(CN2CC(C(=O)Nc3ccc(S(=O)(=O)Nc4cc(C)nc(C)n4)cc3)CC2=O)cc1 (stereo not drawn)	1%
CCCCNC(=O)c1ccccc1NS(=O)(=O)c1ccc2c(c1)OCCO2	?
CCCS(=O)(=O)N1CCN(c2ccccn2)CC1	32µM*

Overlap with the part before: 4 compounds, followed by the next part.
SMILES	HSD17B inh
Cc1cc(Cl)c(S(=O)(=O)NCCC(=O)O)cc1OCC(N)=O	0%
Cc1ccc(CN2CC(C(=O)Nc3ccc(S(=O)(=O)Nc4cc(C)nc(C)n4)cc3)CC2=O)cc1 (stereo not drawn)	1%
CCCCNC(=O)c1ccccc1NS(=O)(=O)c1ccc2c(c1)OCCO2	?
CCCS(=O)(=O)N1CCN(c2ccccn2)CC1	32µM*
O=C(c1ccco1)N1CCN(C(=O)c2cc(-c3ccccn3)nc3ccccc23)CC1	-2%
CN(C)CCCn1cc(C2=C(c3c[nH]c4ccccc34)C(=O)NC2=O)c2ccccc21	-23%
Cc1cc(=O)[nH]c(SCc2nc3ccccc3n2Cc2ccccc2)n1	?
CCC(=O)Nc1ccc(NC(=O)c2c(C)nc3ccccn23)cc1	-11%
CCn1c(=O)c(C(=O)NCc2cccnc2)c(O)c2ccccc21	5%
O=C(CCC1COc2ccccc2O1)Nc1ccc(Cl)cn1 (stereo not drawn)	1%
Cc1cc(C)nc(NS(=O)(=O)c2ccc(-n3cccc3)cc2)n1	16µM*
Cc1ccc(O)c(C(=O)c2cnc3c(c2)CN(CCC(C)C)C(=O)N3)c1	15%
COc1cccc2sc(N3CCN(c4nc5ccccc5s4)CC3)nc12	9%
CSCCC(Nc1nc2ccccc2s1)C(=O)O (stereo not drawn)	-1%
COc1ccc(CCNC(=O)CSc2nnc(Cn3c(=O)sc4ccccc43)n2C)cc1OC	0%
CCOC(=O)c1ccc(CSc2n[nH]c(C)n2)o1	-1%
O=C(Nc1ccc(-c2nc3ccccc3o2)cc1)C1CCCO1 (stereo not drawn)	25µM*
c1ccc(-c2csc(Nc3nc(N4CCOCC4)nc(N4CCOCC4)n3)n2)cc1	3%
CCCCOC(=O)C1[C@H]2C(=O)N(CCc3ccccc3)C[C@]23C=C[C@H]1O3 (stereo partly drawn)	-5%
O=C(O)C1C2C=CC(O2)C1C(=O)NCCC1=CCCCC1 (stereo not drawn)	-11%
COc1ccc(N2C(=O)CCC(C(=O)O)C2c2ccc(F)cc2)cc1 (stereo not drawn)	-4%
CC(=O)N1CCc2cc(S(=O)(=O)NC(CC(C)C)C(=O)N3CCc4ccccc4C3)ccc21 (stereo not drawn)	4%
CCOc1cc(-c2nc(-c3ccc(OC)cc3)no2)cc(OCC)c1OCC	-25%
O=C(C1CCC(CNc2c(N3CCOCC3)c(=O)c2=O)CC1)N1CCN(c2ccccc2)CC1 (stereo not drawn)	1%
CCOC(=O)Cc1csc(SCn2nnc3ccccc3c2=O)n1	12%
COc1ccccc1OCCn1c(=O)sc2ccccc21	11%
Cc1ccc(S(=O)(=O)N2CCN(c3nc(C)nc4sc(C)c(C)c34)CC2)cc1	-2%
CCCCN(C)Cc1c(C)[nH]c2c(Cl)cccc2c1=O	-10%
COC(=O)C1C(O)=C(C(C)=N)C(=O)CC1(C)C (stereo not drawn)	5%
CNc1oc(Cc2cccc3ccccc23)nc1C#N	-12%
CN1CCN(c2nc(-c3ccccc3)nc3c2oc2ccccc23)CC1	2%
Cc1nc(C)c(NC(=O)N2CCc3ccccc32)cc1NC(=O)N1CCc2ccccc21	10%
COc1ccc(-c2coc3ccc(OC4OC(COC(C)=O)C(OC(C)=O)C(OC(C)=O)C4OC(C)=O)c(OC(C)=O)c3c2=O)cc1 (stereo not drawn)	-9%
CCOC(=O)c1nnn(-c2nonc2N)c1COc1ccccc1	-7%
COc1cc(CC(=O)NCc2ccc3c(c2)OCO3)cc(OC)c1OC	3%
Cc1ccc(N2C(=O)CSC2c2cccnc2)cc1F (stereo not drawn)	10%
CCc1cc(C=NC2CCCCC2)c(O)s1	-24%
O=C(Nc1nc(-c2ccccn2)cs1)c1ccc(S(=O)(=O)N2CCCCC2)cc1	-9%
O=C(NCCN1CCOCC1)c1csc2c1CCCCC2	-2%
COc1ccc(CCNC(=O)CCS(=O)(=O)c2ccc3c(c2)CCN3C(C)=O)cc1OC	-7%
COc1ccc(CCC(=O)Nc2nc3c(s2)CN(C)CC3)cc1OC	4%
C[C@@H](C(=O)Nc1ccc2ccccc2c1)[C@H]1C[C@]1(C)[C@H](NC(=O)c1ccccc1)c1ccccc1	-1%
CC(=O)N1CCC2(CC1)CCN(c1ccncc1)CC2	4%
COC(=O)NC(c1cccc(F)c1)[C@@]1(C(=O)OC)CCCC1=O (stereo partly drawn)	6%[11.4 µM]
CC(C)C[C@H](N)CSSC[C@@H](N)CC(C)C	-4%
O=C(CN1CCCCC1)Nc1nnc(-c2ccccc2)s1	4%
CC(C)C1N(C(=O)CN2CCCC2)CCN1S(=O)(=O)c1ccccc1 (stereo not drawn)	5%
CCCc1cc(N2CCCC(C(=O)Nc3cc(Cl)ccc3OC)C2)n2ncnc2n1 (stereo not drawn)	-6%
Cc1ccc2occ(C(=O)c3ccco3)c(=O)c2c1	1%
COc1ccccc1N1C(=O)C2C3C=CC(C3)C2(C)C1=O (stereo not drawn)	0%
CCOC(=O)c1oc2cccc(OCC(O)CNC(C)C)c2c1C (stereo not drawn)	25µM*
CC(C)N1C(=O)CCC1C(=O)NC1CCCC1 (stereo not drawn)	12%
N=c1c2c(n(Cc3ccc(F)cc3)c3c1CCC3)CCC2	2%
O=C(/C=C\Nc1cccc(F)c1)c1ccc2c(c1)OCO2	47%[activator]
CC(C)(C)C(=O)Nc1ccccc1C(=O)Nc1cccnc1	-5%
CCCn1cc(NC(=O)c2cc3n(n2)C(C(F)(F)F)CC(c2ccccc2)N3)cn1 (stereo not drawn)	14%
Cc1onc(-c2c(F)cccc2Cl)c1C(=O)N1CCc2ccccc2C1	-1%
Cc1noc(C)c1C(=O)N1CCC[C@@]2(CCN(c3ncccn3)C2)C1	?
O=C(Cc1ccccc1)Nc1nnc(-c2cccs2)s1	?
O=C(CN1CCC(c2nc3ccccc3[nH]2)CC1)Nc1ccc2c(c1)OCO2	1%
CC(C)Sc1nc2ccccc2n1CC(N)=O	-5%
COc1ccccc1N1C(=O)CC(Sc2nccc(C)n2)C1=O (stereo not drawn)	-8%
Cc1nc(SCC(=O)NCc2ccco2)c2c(C)c(C)sc2n1	-1%
COc1ccc(N(CC(=O)Nc2ccc3c(c2)OCCO3)S(=O)(=O)c2c(C)nn(C)c2C)cc1	-1%

3 successive records from above, for reference:
SMILES	HSD17B inh
COc1ccccc1N1C(=O)CC(Sc2nccc(C)n2)C1=O (stereo not drawn)	-8%
Cc1nc(SCC(=O)NCc2ccco2)c2c(C)c(C)sc2n1	-1%
COc1ccc(N(CC(=O)Nc2ccc3c(c2)OCCO3)S(=O)(=O)c2c(C)nn(C)c2C)cc1	-1%

The list goes on.
SMILES	HSD17B inh
c1ccc(-n2ncc3c(N4CCN(c5ccccn5)CC4)nc(N4CCOCC4)nc32)cc1	-24%
Cc1ccc(-c2csc3ncnc(OCC(=O)NC(=O)NCc4ccco4)c23)cc1	25µM*
COC(=O)CNC(=O)C1(C)C=CC2(CCCCC2)N1C(=O)OC (stereo not drawn)	20%
COc1ccccc1NC(=O)Nn1cnnc1	2%
Nc1cc(N)nc(SCc2ccccc2)n1	-4%
COc1cccc(C2C(C#N)=C(N)Oc3cc(C)oc(=O)c32)c1OC (stereo not drawn)	-1%
CC1CCCC(NC(=O)CCn2c(=O)oc3ccccc32)C1C (stereo not drawn)	-5%
COC(=O)C(C(C)=O)C(=O)C(Cc1ccccc1)NC(=O)OCc1ccccc1 (stereo not drawn)	-4%[11.4 µM]
COc1ccc(NC(=O)NCCCN2CCCCC2C)cc1 (stereo not drawn)	3%
COc1ccc(C2(C(F)(F)F)NC(=O)N(C)C(=O)N2C)cc1 (stereo not drawn)	-2%
O=C(Nc1cc(N2CCOCC2)ncn1)c1ccccc1	3%
CCOc1ccc(NC(=O)c2ccccc2O)cc1	-9%
COCCCn1c(SCC(=O)Nc2ccc3c(c2)OCCO3)nnc1-c1ccoc1C	-6%
O=C(Cn1cnc2ccccc21)NCc1ccccc1	6%
COc1ccc(-n2c(Cc3cc(=O)[nH]c(=O)[nH]3)nnc2SCC(=O)N2CCCC2)cc1	10%
COCCOC(=O)C1=C(C)Nc2nc(C)nn2C1c1ccc(F)cc1 (stereo not drawn)	2%
CN1CCCCc2c1[nH]c1ccccc1c2=O	?
c1ccc(CNc2nc3ccccc3[nH]2)cc1	9%
O=C(C1CCN(S(=O)(=O)c2cccc3nsnc23)CC1)N1CCn2c1nc1ccccc12	-10%
Nc1ccc(Nc2ccccc2)c(Cl)c1	-7%
O=C(COc1ccccc1)N1CCN=C1c1ccccc1	2%
CCOC(=O)COc1ccc(S(=O)(=O)NCc2cccnc2)cc1	6%
O=C(CSc1nnc(C2COc3ccccc3O2)o1)N1CCCc2ccccc21 (stereo not drawn)	-24%
COc1cccc([C@H](O)Cn2cc(-c3cccc(CON=C(C)C)c3)nn2)c1	0%[11.4 µM]
COc1cccc2cc(C(=O)N3CCN(c4ccc(C)cc4C)CC3)c(=O)oc12	1%
Cn1c(=O)c2c(nc(SCCN3CCOCC3)n2Cc2cccc3ccccc23)n(C)c1=O	-8%
COc1ccc(OCCCC(=O)Nc2ccc3c(c2)OCO3)cc1	-1%
Cc1cccc(N(C(=O)Nc2ccccc2)C2=NCC(C)S2)c1 (stereo not drawn)	-5%
COc1ccc(C(C(=O)OC(C)CN(C)C)c2ccccc2)cc1 (stereo not drawn)	3%
COCCNc1nc(-c2cccc(OC)c2)nc2ccccc12	-16%
CN1CCN(/C(=N\S(=O)(=O)c2ccc(F)cc2)c2ccccc2)CC1	11%
CC(=O)Nc1ccc(C(=O)NC2CCCC2)cc1	10%
c1coc(-c2nc3nc4ccccc4n3nc2-c2ccco2)c1	-12%
Cn1c(-c2ccccc2)c(CCO)c2ccccc21	32µM*
Cc1c(NC(=O)C2CCCNC2=O)c(=O)n(-c2ccccc2)n1C (stereo not drawn)	9%
Cc1onc(-c2c(F)cccc2Cl)c1C(=O)N[C@@H]1C(=O)N2[C@H]1SC(C)(C)[C@H]2C(=O)O	-3%[11.4 µM]

Some of the entries so far, field by field:
CC(=O)N1CCc2cc(S(=O)(=O)NC(CC(C)C)C(=O)N3CCc4ccccc4C3)ccc21 (stereo not drawn)
  HSD17B inh: 4%
CCOc1cc(-c2nc(-c3ccc(OC)cc3)no2)cc(OCC)c1OCC
  HSD17B inh: -25%
O=C(C1CCC(CNc2c(N3CCOCC3)c(=O)c2=O)CC1)N1CCN(c2ccccc2)CC1 (stereo not drawn)
  HSD17B inh: 1%

New compounds follow.
SMILES	HSD17B inh
Cc1cc2c(cc1C)N(CC(=O)N1CCCC1)C(=O)CC(c1ccccc1)=N2	1%
O=C(CN1CCC(O)(c2ccc(F)cc2)CC1)NCc1ccc(F)cc1	0%
CNC(=O)[C@@H]1C[C@H]1[C@@H](NC(=O)CNC(=O)OCc1ccccc1)c1ccccc1	2%
CN(Cc1cccc2ccccc12)Cc1cccc2ccccc12	0%[11.4 µM]
COc1ccc(-c2c(C#N)c(N)nc3c2CCCC3)cc1OC	?
O=C(C1CCCN(S(=O)(=O)c2cnc[nH]2)C1)N(CCc1ccccc1)Cc1ccccc1 (stereo not drawn)	2%
